Mtb betalactam = beta-lactam sensitization of Mtb H37Rv | M. tuberculosis H37Rv growth with meropenem, percent inhibition; hits of this screen are not shown here | inhibition, % at 25 µM | hit rate 0.27% among 330,000 | AID 434955;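 active = about 74% or more and at least 40 points above the plate without the antibiotic, then above 30% in a dose series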;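 note: growth measured after seven days incubation then overnight dye step; 0% = bacteria only wells and 100% = bacteria with antibiotic; twin plates without the antibiotic show which effects depend on it; some results filed as inactive read as strong as hits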
* marks the source's active call; other numbers are inactive results. Not all compounds are listed; count on the stated rates, not on these rows.

SMILES	Mtb betalactam
CC(C)(C)[C@@H]1COC(=O)[C@@H](Cc2ccc(F)cc2)CC/C=C\C[C@@H](CC(=O)N(CCO)Cc2ccccc2)C(=O)N1	-4
COc1ccc(NC(=O)Nc2cccc3c2O[C@H](CN(C)S(=O)(=O)c2ccc(OC)cc2)[C@@H](C)CN([C@H](C)CO)C3=O)cc1	4
C[N+](C)(C)CCOC(=O)CCC(=O)OCC[N+](C)(C)C	-2
Cc1cc(C(=O)OCC(=O)NC2CC2)c2ccccc2n1	-5
Cc1ccc(C)c(OCCC(=O)Nc2cccc(S(=O)(=O)N3CCCCC3)c2)c1	-3
CC(C)CC1Nc2ncnc(N3CCN(c4ccccn4)CC3)c2N(Cc2ccccc2)C1=O (stereo not given)	-3
O=C(NNC(=O)c1cc(-c2ccncc2)nc2ccccc12)c1ccccc1F	-6
Cc1ccc(S(=O)(=O)N2CCCCC2)cc1NC(=O)CNC(C)c1ccc(Cl)c(Cl)c1 (stereo not given)	3
C#CCOC(=O)C1=CCCN(C)C1	5
CNc1snc(C)c1C(=O)OCC(=O)N(C)Cc1ccccc1	-7
COc1ccc(NS(=O)(=O)c2cc(N)ccc2N2CCCC2)cc1	2
CC(C#N)N1CCN(S(=O)(=O)c2ccc3c(c2)CCC3)CC1 (stereo not given)	-3
Cc1ccc(S(=O)(=O)N2CCN(C3CC(=O)N(c4ccc(F)cc4)C3=O)CC2)cc1C (stereo not given)	3
CCC(C)[C@H](NS(=O)(=O)c1ccc(C)cc1)C(=O)N1CCC(C(=O)N[C@H](C(=O)O)c2ccccc2)CC1 (stereo not given in full)	-6
NC(=O)c1ccc(-c2noc(-c3ccccc3F)n2)cc1	11
CCOC(=O)/C=C/[C@H]1CC(c2ccccc2)(c2ccccc2)CO1	1
O=C(CCN1C(=O)CSc2ccccc21)Nc1ccc(OC(F)(F)F)cc1	63
COc1cc(C)c(NC(=O)c2cc(C3CC3)nc3c2cnn3C(C)C)cc1OC	-5
CC(C)(C)c1ccc(S(=O)(=O)N2CCN(CC(O)CN3CCOCC3)CC2)cc1 (stereo not given)	-7
CCc1ccccc1NC(=O)c1ccc(S(=O)(=O)NCC2CCCO2)cc1 (stereo not given)	-6
COc1ccc(NC(=O)COC(=O)CCc2nc3ccccc3c(=O)[nH]2)cc1Cl	-3
Cc1ccc(S(=O)(=O)N2CCN(C(C)C(=O)NCC(C)c3ccccc3)CC2)cc1 (stereo not given)	-2
CC(=O)c1cccc(S(=O)(=O)N2CCCC(c3nc4c(nnn4Cc4cccc(Cl)c4)c(=O)[nH]3)C2)c1 (stereo not given)	-4
CN(CC(=O)Nc1ccc(OC(F)(F)F)cc1)C(=O)/C=C/c1ccco1	1
O=C(COC(=O)c1ccc(F)c(S(=O)(=O)N2CCOCC2)c1)NC1CCCCC1	-5
O=C(c1ccco1)N1CCN(C(=O)c2ccc(-c3ccc([N+](=O)[O-])cc3)o2)CC1	-7
CCOc1ccc2oc(C(=O)N(CCOC)c3c(N)n(CC(C)C)c(=O)[nH]c3=O)c(C)c2c1	1
O=C1NCCN1c1ncc([N+](=O)[O-])s1	3
CCN(C[C@H]1N[C@@](CC)(C(=O)OC)[C@H]2C(=O)N(Cc3ccccc3)C(=O)[C@@H]12)C(=O)NC(C)C	0
CCOC(=O)C1CCN(C(=O)COC(=O)c2oc3ccc(OC)cc3c2C)CC1	1
CCN(CC(=O)Nc1ccc(Br)cc1)C(=O)c1nc2nc(C)cc(C)n2n1	-1
Cc1cccc(N(CC(=O)NC2CCCCC2)C(=O)CCCC(=O)Nc2ccccn2)c1C	6
O=C(COC(=O)c1ccc([N+](=O)[O-])o1)NC1CCCc2ccccc21 (stereo not given)	74
CC(Sc1nccn1C)C(=O)NC1(C#N)CCCCC1 (stereo not given)	0
Cc1cc(NC(=O)COC(=O)C2=NN(c3ccccc3)C(=O)CC2)c([N+](=O)[O-])cc1C	3
CCc1ccccc1NC(=O)CN(C)C(=O)COC(=O)c1ccco1	1
O=C(C1CCN(S(=O)(=O)c2ccccc2)CC1)N1CCC1	-5
COc1ccc(NS(=O)(=O)c2ccc(N3CCCCC3)c(NC(=O)C(C)NC(N)=O)c2)cc1 (stereo not given)	-8
O=C(COC(=O)COc1cccc(Br)c1)Nc1ccc(F)cc1F	-1
COC(=O)c1ccc(CNC(=O)C23CC4CC(CC(C4)C2)C3)cc1	2
CCN(CC(=O)Nc1c(F)cccc1F)C(=O)c1nn(C)c(=O)c2ccccc12	-8
CN(C(=O)c1ccc(NC(=O)C2CCCN(C(=O)OC(C)(C)C)C2)cc1)C1CCCCC1 (stereo not given)	4
COc1ccc(-c2nc3cc(C)ccn3c2NC2CCCCC2)cc1SC1CCCCC1	85
COc1cc2ccc(=O)oc2cc1O	-10
COCCn1c(SCC(=O)NC(=O)Cc2ccccc2)nc2ccccc2c1=O	-5
CCC1CCCCN1CCN1C(=O)C2C(C(=O)Nc3cccc(OC)c3)C3C=CC2(O3)C1C(=O)NC1CCCCC1 (stereo not given)	8
O=C(NC1CCN(C(=O)Nc2cccc(Cl)c2)CC1)c1ccco1	-4
Cn1ccnc1-c1ccc(-c2nccn2C)cc1	3
O=C(CCCN1C(=O)NC2(CCCC2)C1=O)N1CCN(S(=O)(=O)c2ccccc2)CC1	-2
CCCNC(=O)C1CN(C(=O)c2nn(Cc3ccccc3)c(=O)c3ccccc23)c2ccccc2O1 (stereo not given)	-4
O=C(Nc1cccc(Cl)c1)C1C2C=CC3(O2)C1C(=O)N(CCN1CCCCC1)C3C(=O)NC1CCCCC1 (stereo not given)	0
COC(=O)c1c(C)[nH]c(C(=O)C(C)OC(=O)C2CC(=O)N(c3ccc(C)cc3)C2)c1C (stereo not given)	-1
O=C(COC(=O)c1ccc(O)cc1)NCCc1c[nH]c2ccccc12	3
Cc1noc(C)c1COc1ccc(C(=O)N2CCC(C(N)=O)CC2)cc1	6
O=C(c1cc2cc(Cl)ccc2[nH]1)N1CCN(c2ccccn2)CC1	-4
O=C(NCc1cccnc1)c1ccccc1NS(=O)(=O)c1ccc(Br)cc1	-5
Cc1cccc(C)c1NC(=O)COC(=O)c1cc(S(=O)(=O)Nc2ccc(Cl)cc2)ccc1O	0
O=S(=O)(NC1=NCCC1)c1cccc(NS(=O)(=O)c2ccc(F)c(Cl)c2)c1	-4
NC(=O)C1CCN(c2nc(-c3ccc(F)cc3)cs2)CC1	-8
Cc1ccc(S(=O)(=O)N2CCOCC2)cc1C(=O)NC(C)CCc1ccccc1 (stereo not given)	-2
More entries follow.
SMILES	Mtb betalactam
CCC(CC)c1nnc(NC(=O)c2cccc(S(=O)(=O)N3CCOCC3)c2)s1	-7
COc1ccc(C(CNC(=O)c2c(C)nn(Cc3ccccc3)c2Cl)N2CCOCC2)cc1 (stereo not given)	-2
Cc1ccc(S(=O)(=O)N2CCCCC2)cc1NC(=O)C1CC1	6
COc1ccc(NC(=O)COc2cccc3c2OC(C)(C)C3)cc1OC	-3
Cc1ccc(NC(=O)CN(C)C(=O)COC(=O)c2nc3nccc(C)n3n2)cc1	67
CNC(=O)NC(=O)CSc1ccc(S(=O)(=O)N2CCOCC2)cn1	-6
CCOC(=O)c1c(NC(=O)C(C)OC(=O)C2=COCCO2)sc2c1CCCC2 (stereo not given)	76
CC[C@H](C)[C@H](NC(=O)c1ccc(Cl)cc1)C(=O)OCC(=O)c1c(N)n(C)c(=O)n(C)c1=O	-1
COCCNC(=O)c1cc(-c2ccccc2)n(Cc2cc(C)no2)n1	-4
C=C(C)C(Cc1c(OC)ccc(C(=O)/C=C/c2ccc(O)cc2)c1O)OO (stereo not given)	1
CCN(CC)CCOC(=O)C(c1ccccc1)C1CCCCC1 (stereo not given)	-8
CC1CCCCC1NC(=O)COC(=O)c1ccc2c(c1)OCCO2 (stereo not given)	-2
O=C(O)CCCC(=O)OCc1c(-c2ccccc2)ncc2ccccc12	-3
Cc1cc(C)cc(N2CC(C(=O)Nc3cc(C)on3)CC2=O)c1 (stereo not given)	5
CC(=O)Nc1ccc(S(=O)(=O)N(C)CC(=O)OCC(=O)c2ccc[nH]2)cc1	-3
COc1ccccc1NC(=O)COC(=O)C1CC(=O)N(c2ccc3c(c2)OCCO3)C1 (stereo not given)	1
O=C(COC(=O)c1ccc(OC(F)F)cc1)Nc1cccc(S(=O)(=O)NC2=NCCC2)c1	-1
O=C(Nc1ccc(Cl)c(S(=O)(=O)N2CCOCC2)c1)C1CCC1	-2
Cc1ccc(S(=O)(=O)N2CCOCC2)cc1NC(=O)c1cc2ccccc2oc1=O	3
COc1ccc([C@H]2CC(=O)C=C(c3cccc(Cl)c3)C2)cc1	5
Cc1ccc(Cl)cc1NC(=O)Cn1c(C)csc1=O	9
Cc1ccc(OCC(=O)c2c(N)n(C)c(=O)n(C)c2=O)c([N+](=O)[O-])n1	2
O=C(O)C1=CCCN(CCON=C(c2ccccc2)c2ccccc2)C1	2
CCOc1ccccc1C(=O)N[C@H](C(=O)OCc1csc(CC(=O)Nc2ccc(C)cc2)n1)C(C)C	-4
CC(C)Oc1ccc(/C(O)=C2/C(=O)C(=O)N(CCN3CCNCC3)C2c2cccc([N+](=O)[O-])c2)cc1 (stereo not given)	0
CCCCCn1c(=O)[nH]c2cc(C(=O)NCCN3C(C)CCCC3C)ccc2c1=O (stereo not given)	-4
O=C(NN1C(=O)NC2(CCCCC2)C1=O)c1ccc(-c2ccccc2Cl)o1	-4
Cc1cc(C)n(CCCNC(=O)COc2ccc([N+](=O)[O-])cc2)n1	3
O=C(CSc1nnc(-c2ccncc2)s1)Nc1ccc(Cl)c(C(=O)O)c1	15
COCC(C)NC(=O)CSc1nc2cc(S(=O)(=O)N3CCCCC3)ccc2o1 (stereo not given)	-1
C=CC[C@@H](CC(=O)N[C@@H](CO)Cc1ccccc1)C(=O)NC[C@H](OC(=O)[C@@H](CC=C)Cc1ccc(F)cc1)c1ccccc1	2
CS(=O)(=O)N(CC(=O)N1CCN(Cc2ccccc2)CC1)c1ccccc1F	-12
Cc1ccnc2nc(C(=O)OCC(=O)c3ccc(Cl)cc3)nn12	-1
COc1ccc([C@@H]2CC=C(C(=O)O)[C@H](c3ccccc3)N2S(=O)(=O)c2ccccc2C)cc1	0
C=CC[C@H](CC(=O)NCCO)C(=O)N[C@H](C)COC(=O)[C@@H](CC=C)Cc1ccc(F)cc1	-5
O=C(Cc1c(F)cccc1Cl)NNC(=O)c1ccccc1Cl	1
CC(C)C(NS(=O)(=O)c1cccs1)C(=O)N1CCC(C(N)=O)CC1 (stereo not given)	6
COc1ccc(-c2ccc3c(c2)S(=O)(=O)c2cccc(C(=O)O)c2C3=O)cc1OC	2
C[C@]12c3[nH]c4ccccc4c3CCN1C(=O)C(CC(=O)NCCc1ccccn1)C[C@@H]2C(=O)N1CCCCC1 (stereo not given in full)	-2
CN(c1ccc(C(=O)Nc2cccnc2)cc1)S(=O)(=O)c1ccccc1	-5
COCCNC(=O)C(c1ccc(F)cc1)N(CCOC)C(=O)CCC(=O)Nc1ccccn1 (stereo not given)	5
C=CCn1c(C)cc(C(=O)COc2ccc(N(C)S(=O)(=O)c3ccc(NC(C)=O)cc3)cc2)c1C	-1
O=S(=O)(c1ccc(SCCOc2ccc(Cl)cc2)nc1)N1CCCC1	-6
Fc1ccc2cc(-c3ccccc3)ncc2c1	5
CCCCCCn1nc(C(=O)N(CCCC)c2c(N)n(CCC)c(=O)[nH]c2=O)c2ccccc2c1=O	-9
CCCCn1c(N)c(N(CCOC)C(=O)C2CC(=O)N(c3ccc(CC)cc3)C2)c(=O)[nH]c1=O (stereo not given)	5
COc1ccccc1C(=O)NCC(=O)Nc1ccc2c(c1)CCC2	-3
CCCCCn1nc(C(=O)N2CCc3ccccc32)c2ccccc2c1=O	40
COc1ccc2cc(C(C)C(=O)OC(C)C)ccc2c1 (stereo not given)	5
CN(C)c1ccc(-c2ccc3oc(-c4ccsc4)cc(=O)c3c2)cn1	-7
O=c1c2ccccc2sn1-c1ccc(F)cc1	99
CC(C)NC(=O)Nc1cccc2c1O[C@@H](CN(C)S(=O)(=O)c1ccc(F)cc1)[C@@H](C)CN([C@H](C)CO)C2=O	12
Nc1cccc(O)c1	-2

Some of these compounds in order of SMILES length, low to high.
SMILES	Mtb betalactam
Nc1cccc(O)c1	-2
CN(C)c1ccc(-c2ccc3oc(-c4ccsc4)cc(=O)c3c2)cn1	-7
CCCCCCn1nc(C(=O)N(CCCC)c2c(N)n(CCC)c(=O)[nH]c2=O)c2ccccc2c1=O	-9

Random excerpt: 6 compounds from above, in no set order.
SMILES	Mtb betalactam
CCCCCn1nc(C(=O)N2CCc3ccccc32)c2ccccc2c1=O	40
COc1ccccc1C(=O)NCC(=O)Nc1ccc2c(c1)CCC2	-3
CC(C)NC(=O)Nc1cccc2c1O[C@@H](CN(C)S(=O)(=O)c1ccc(F)cc1)[C@@H](C)CN([C@H](C)CO)C2=O	12
C=CCn1c(C)cc(C(=O)COc2ccc(N(C)S(=O)(=O)c3ccc(NC(C)=O)cc3)cc2)c1C	-1
CCCCCCn1nc(C(=O)N(CCCC)c2c(N)n(CCC)c(=O)[nH]c2=O)c2ccccc2c1=O	-9
CCCCn1c(N)c(N(CCOC)C(=O)C2CC(=O)N(c3ccc(CC)cc3)C2)c(=O)[nH]c1=O (stereo not given)	5

Among those listed so far, these contain a thiophene ring, fused or not:
SMILES	Mtb betalactam
CCOC(=O)c1c(NC(=O)C(C)OC(=O)C2=COCCO2)sc2c1CCCC2 (stereo not given)	76
CC(C)C(NS(=O)(=O)c1cccs1)C(=O)N1CCC(C(N)=O)CC1 (stereo not given)	6
CN(C)c1ccc(-c2ccc3oc(-c4ccsc4)cc(=O)c3c2)cn1	-7
